TRPV1 PAM = potentiators of human vanilloid receptor 1 (TRPV1); 320,000 compounds, 0.02% hits; potentiation, % at 8.33 µM; TRPV1-expressing cells, Fluo-8 calcium influx, capsaicin EC20 potentiation; host cell line not named in the record; control for the full effect not named in the record; Q8NER1; active means potentiation above 80%; inconclusive means 30% to 80%; inactive means below 30%; further: 0% is about no effect
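Fluo-8 calcium influx in TRPV1-expressing cells, kinetic read (ex 480/em 520 nm). Compound added and read 3 min for agonist activity, followed by capsaicin at EC20 final and 2 min further read for enhancement.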
Sfp PPTase inh = Sfp phosphopantetheinyl transferase inhibition | Q9F4F7 | Biochemical Sfp PPTase activity, qHTS | Potency, µM, inactives show max response, negative = inhibition, actives largely listed as inhibitors | 310,000 compounds, 3.5% hits | AID 1490; active means well fitted inhibition curve with a large enough effect; inconclusive means small, poorly fitted or top-dose-only effect, or another doubt; inactive means no such curve, though single readings can be large or run the other way;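 further: the enzyme is Sfp with the accession as filed and its product quenches rhodamine fluorescence; potency means the concentration at half of the fitted maximal effect; 0% = enzyme reaction without inhibitor and -100% = no enzyme wells; top concentration of the series not given in the record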
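Fluorescence-quenching assay: 15 nM Sfp-PPTase preincubated 15 min at room temperature with compound, then 5 uM rhodamine-CoA and 12.5 uM BHQ-2-labelled YbbR peptide added. Fluorescence (ex 525/em 598 nm) read at start and after 30 min; difference gives rate.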
ClpP mod = qHTS Assay for Activators of ClpP; purified B. subtilis ClpP, FRET peptide cleavage, 20 min; ATP-dependent Clp protease proteolytic subunit (Bacillus subtilis (strain 168)), P80244; 340,000 compounds, 1.9% hits; Potency, µM (series often up to 57.5 µM), inactives show at the highest dose activity change, negative = active; AID 651965, 2013; active = well fitted falling curve with a large enough effect; inconclusive = small, poorly fitted or top-dose-only effect; inactive = no such curve, though single readings can be large or run the other way; further: potency means the concentration at half of the fitted maximal effect; the source files actives as falling curves though it sought activators and does not explain the sign; nearly all actives have a fitted effect of over 65% in size; many hits overshoot -100%
Target sequence (P80244 whole entry, looked up): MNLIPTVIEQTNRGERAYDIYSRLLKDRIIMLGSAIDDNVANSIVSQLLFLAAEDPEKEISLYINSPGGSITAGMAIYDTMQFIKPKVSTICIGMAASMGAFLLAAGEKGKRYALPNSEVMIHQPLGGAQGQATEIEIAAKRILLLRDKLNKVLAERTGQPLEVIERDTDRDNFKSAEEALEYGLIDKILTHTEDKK
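ClpP 10 microg/mL final, pH 8 Tris/KCl buffer with BSA, glycerol, Tween-20; compound pinned in; FRET-FV substrate; RT 20 min; Ex320/Em430; ΔFRET vs ADEP 5.8 microM, DMSO, no enzyme.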
TRPML1 inh = human mucolipin-1 channel inhibition; Q9GZU1; TRPML1-inducible cells, Ca2+ dye fluorescence, FDSS; stronger effect = lower value; inhibition of EC80 agonist-evoked calcium signal; activity change, negative = inhibition, % (no concentration beside the values); 390,000 compounds, 0.02% hits; in the data active means activity change below about -50%; inconclusive means about -30% to -50%; inactive means above about -30%;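 further: stimulus is agonist 54-4 at its EC80 concentration; on the % scale 0 is the no-effect control and ±100 the full control effect; compound concentration not given in the record; the text of the record puts the active cut at -80%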
Target sequence (Q9GZU1 whole entry, looked up): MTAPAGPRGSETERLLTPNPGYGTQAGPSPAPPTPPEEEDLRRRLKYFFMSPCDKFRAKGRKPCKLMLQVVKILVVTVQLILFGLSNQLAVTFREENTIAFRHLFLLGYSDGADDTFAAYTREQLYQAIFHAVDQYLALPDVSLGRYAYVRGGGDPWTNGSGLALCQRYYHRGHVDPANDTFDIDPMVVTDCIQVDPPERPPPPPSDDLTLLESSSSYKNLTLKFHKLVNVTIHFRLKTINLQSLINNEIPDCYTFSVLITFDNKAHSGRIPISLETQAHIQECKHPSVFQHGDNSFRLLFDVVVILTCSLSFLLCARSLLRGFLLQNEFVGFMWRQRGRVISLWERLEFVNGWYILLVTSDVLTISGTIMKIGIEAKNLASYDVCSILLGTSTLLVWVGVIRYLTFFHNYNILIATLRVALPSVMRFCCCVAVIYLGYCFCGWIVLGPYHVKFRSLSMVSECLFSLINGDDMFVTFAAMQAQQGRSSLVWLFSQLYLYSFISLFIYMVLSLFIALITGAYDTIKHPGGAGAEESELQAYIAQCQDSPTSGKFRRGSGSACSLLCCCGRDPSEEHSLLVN
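Calcium fluorescence in TRPML1-DL cells induced overnight with Tet: a 110 s read after compound pin addition, then a 110 s antagonist read after challenge with 54-4 at 4 uM final (EC80).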
TRPML1 agonist = human mucolipin-1 channel agonism; TRPML1-expressing cells, Ca2+ dye fluorescence, FDSS; host cell line not named in the record; reference of the full effect not given here; 410,000 compounds, 0.12% hits; Q9GZU1; activation, % (concentration not given with the values); in the data active = activation above about 50%; inconclusive = about 30% to 50%; inactive = below about 30%; further: 0% is about no effect; the text of the record puts the active cut at 80%
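Calcium fluorescence on an FDSS kinetic reader gave the read-out. Tet-induced TRPML1-DL cells were plated overnight, dye-loaded (Ca8 with quencher, 45-90 min, room temperature, dark), then read 110 s after compound addition, and again 110 s after 4uM final 54-4 (EC80).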
PINK1 modulator = modulators of PINK1 expression; PINK1 immunofluorescence, high-content cytometry, 24 h; Potency, µM (titrated, usually from 76.6 µM), without a hit: at the highest dose activation (PINK1 increase), actives largely listed as activators; 410,000 compounds, 0.2% hits; AID 624263; active = well fitted activation curve with a large enough effect; inconclusive = small, poorly fitted or top-dose-only effect; inactive = flat fitted curve, though single readings scatter; cell line not stated here;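 further: potency means the concentration at half of the fitted maximal effect; % of control where 0% means no effect; nearly all actives have a fitted effect of over 65% in size; a mitochondrial uncoupler was the plate control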
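A stable cell line was treated with compounds at 5 concentrations for 24 hours, with CCCP as control. PINK1 levels and mitochondrial localization were measured by immunofluorescence with mitochondrial, cell and nuclear markers after fixation, read by laser-scanning cytometry.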
Menin-MLL FL inh = displaces fluorescein MLL peptide from human menin; FP activity change, % at 61.4 µM; Fluorescence polarization, fluorescein-MLL peptide displacement from menin; 290,000 tested, under 10 active; inconclusive = falling polarisation curve, or a change in total fluorescence; inactive = total fluorescence flat and polarisation flat or rising; no compound was filed as active; the % refers to the polarisation; negative = inhibition;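 further: % of control where 0% means no effect; inhibitors lower the polarisation; unlabelled MLL peptide was the positive control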
The depositor's hits bear a star; ? = inconclusive; · = not tested or not shown; & = joins results of further samples; [ ] = another dose, or the depositor's remark.

Start of the listing, in advance:
SMILES	TRPV1 PAM	Sfp PPTase inh	ClpP mod	TRPML1 inh	TRPML1 agonist	PINK1 modulator	Menin-MLL FL inh
O=C(Nc1cc(-c2nc3ncccc3o2)ccc1Cl)c1ccc2c(c1)OCO2	-5	·	-6.6%	15	-0.9	4.6%	·
O=C(NCCc1ccc(Cl)cc1)c1ccc(CS(=O)Cc2ccccc2Cl)o1 (configuration not stated)	-31	3%	-0.3%&-0.4%	-5&-4	-0.8&0.7	0.6%&1.7%	·
COCCNC(=O)C1(C)CCN(C(=O)c2sc(-c3ccccc3)nc2C)C1 (configuration not stated)	·	·	-2.5%	8	-0.4	0.8%	·
O=C(O)c1ccc(CNS(=O)(=O)c2ccc(Oc3ccccc3Cl)cc2)cc1	6	10%	3.5%	7	0.7	0.7%	1.3
Cc1[nH]c2ccc(F)cc2c1CCNC(=O)C1CCCCC1C(=O)OCC(F)(F)F (configuration not stated)	-6	9%	-0.8%	9	-0.1	2.4%	-1.0

The list itself (from the top)
SMILES	TRPV1 PAM	Sfp PPTase inh	ClpP mod	TRPML1 inh	TRPML1 agonist	PINK1 modulator	Menin-MLL FL inh
O=C(Nc1cc(-c2nc3ncccc3o2)ccc1Cl)c1ccc2c(c1)OCO2	-5	·	-6.6%	15	-0.9	4.6%	·
O=C(NCCc1ccc(Cl)cc1)c1ccc(CS(=O)Cc2ccccc2Cl)o1 (configuration not stated)	-31	3%	-0.3%&-0.4%	-5&-4	-0.8&0.7	0.6%&1.7%	·
COCCNC(=O)C1(C)CCN(C(=O)c2sc(-c3ccccc3)nc2C)C1 (configuration not stated)	·	·	-2.5%	8	-0.4	0.8%	·
O=C(O)c1ccc(CNS(=O)(=O)c2ccc(Oc3ccccc3Cl)cc2)cc1	6	10%	3.5%	7	0.7	0.7%	1.3
Cc1[nH]c2ccc(F)cc2c1CCNC(=O)C1CCCCC1C(=O)OCC(F)(F)F (configuration not stated)	-6	9%	-0.8%	9	-0.1	2.4%	-1.0
COC(=O)N/N=C/c1cc(C)n(-c2ccc(F)cc2)c1C	5	6%	·	17	-0.6	3.1%	-0.3
Cc1cc(C)n(C2CC(=O)N(c3cccc(Cl)c3)C2=O)n1 (configuration not stated)	-13	?	-2.7%	11	-0.2	1.1%	-0.8
Cc1noc(C)c1S(=O)(=O)N(C)C[C@H]1Oc2ccc(NS(=O)(=O)c3ccccc3)cc2C(=O)N([C@H](C)CO)C[C@@H]1C	·	·	-1.4%	-7	0.4	3.4%	·
Cc1ccc2c(COC(=O)CNC(=O)c3ccccc3)cc(=O)oc2c1	-9	1%	-9.8%	10	0.3	0.1%	5.3
CCSC1=N/C(=C\c2cccc(F)c2)C(=O)S1	?	-13%	-4.4%	18	-0.4	-0.1%	5.1

Another view of 2 compounds above:
Compound | TRPV1 PAM | Sfp PPTase inh | ClpP mod | TRPML1 inh | TRPML1 agonist | PINK1 modulator | Menin-MLL FL inh
O=C(NCCc1ccc(Cl)cc1)c1ccc(CS(=O)Cc2ccccc2Cl)o1 (configuration not stated) | -31 | 3% | -0.3%&-0.4% | -5&-4 | -0.8&0.7 | 0.6%&1.7% | ·
Cc1cc(C)n(C2CC(=O)N(c3cccc(Cl)c3)C2=O)n1 (configuration not stated) | -13 | ? | -2.7% | 11 | -0.2 | 1.1% | -0.8

Other results:
SMILES	TRPV1 PAM	Sfp PPTase inh	ClpP mod	TRPML1 inh	TRPML1 agonist	PINK1 modulator	Menin-MLL FL inh
C[C@H]1CN([C@@H](C)CO)C(=O)CCCn2cc(nn2)CO[C@@H]1CN(C)S(=O)(=O)c1cccc(C#N)c1	·	·	-2.5%	16	-0.5	-0.5%	·
O=C(Nc1ccc(Cl)cn1)c1cccc(S(=O)(=O)N2CCOCC2)c1	-26	10%	0.8%	-11	-1.5	-2.7%	2.1
CCN(C(=O)CSc1nnc(-c2ccc(OC(F)F)cc2)n1N)C1CCS(=O)(=O)C1 (configuration not stated)	-11	·	-3.4%	-8	0.6	0.3%	·
CCc1ccc(CCC(=O)Nc2ccccc2C(=O)O)o1	10	-9%	-14%	18	2.3	9.6%[38.3 µM]	2.9
CC(Oc1ccc(Cl)cc1Cl)C(=O)NC1=NN(c2ccccc2)C(=O)C1 (configuration not stated)	10	21%	-2.6%	-2	0.3	9.2%	1.5
CC(C)COP(=O)(OCC(C)C)C(O)c1ccc2c(c1)OCO2 (configuration not stated)	-11	8%	-6.6%	-9	0.7	-0.8%	47[activator]
COc1ccccc1OCCOCCOc1ccccc1Cl	2	0%	-1.3%	1	0.4	0.6%	1.9
Cn1c(=O)n(-c2ccc3c(c2)OCO3)c2nc(-c3ccccc3)nc(C(N)=O)c21	·	·	3.2%	-13	-0.5	0.7%	·
CCOC(=O)C1CCN(C(=O)c2ccc(-n3ccc4ccccc43)s2)CC1	·	·	?	21	1.1	0.7%	·
CCNC(=O)C1CCCN(C(=O)c2cccc3ccccc23)CC1 (configuration not stated)	·	·	0.4%	34	0.1	1.1%	·

At a glance, some entries already given.
SMILES	TRPV1 PAM	Sfp PPTase inh	ClpP mod	TRPML1 inh	TRPML1 agonist	PINK1 modulator	Menin-MLL FL inh
Cc1noc(C)c1S(=O)(=O)N(C)C[C@H]1Oc2ccc(NS(=O)(=O)c3ccccc3)cc2C(=O)N([C@H](C)CO)C[C@@H]1C	·	·	-1.4%	-7	0.4	3.4%	·
Cc1ccc2c(COC(=O)CNC(=O)c3ccccc3)cc(=O)oc2c1	-9	1%	-9.8%	10	0.3	0.1%	5.3

Next entries:
SMILES	TRPV1 PAM	Sfp PPTase inh	ClpP mod	TRPML1 inh	TRPML1 agonist	PINK1 modulator	Menin-MLL FL inh
COc1cc2c(cc1O)C(CSC)Cc1cc3c(cc1N(C)CC2)OCO3 (configuration not stated)	·	·	-19%	20	0.6	3.2%	·
COc1ccccc1NC(=O)c1sc2nc(C)c(C(=O)Nc3ccc(C)cc3C)c(-c3ccccc3Cl)c2c1N	·	·	-28%	-3	0.3	-0.6%	·
CCOc1cc(C(C(=O)NCC2CCCO2)N(C(=O)Cn2nnc3ccccc32)c2ccc(NC(C)=O)cc2)ccc1O (configuration not stated)	14	5%	·	8	0.0	-0.5%	·
Cc1ccc2nc(C(F)OC(F)(F)F)[nH]c2c1 (configuration not stated)	8	7%	-3.4%	-11	-0.2	0.8%	1.1
O=C(Nc1cccnc1)/C(N=Nc1ccc(Cl)c(C(F)(F)F)c1)=C(\O)c1ccccc1	-2	-7%	1.7%	2	-0.2	1.9%	3.5
